From PubChem
Calb biofilm kill: mixtures killing C. albicans biofilm. C. albicans biofilm persisters + clotrimazole, fluorescence viability; primary screen in compound mixtures of four per well. inhibition, % at 7.6 µM. actives 0.02% (n = 120,000). AID 1242;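 active = inhibition above 30.3% in the primary screen of four-compound pools, then above 30% when the compound was retested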;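 note: compounds exposed to preformed 24 h biofilms for 48 h; the number belongs to the whole pool; some results filed as inactive read as strong as hits; inactives centre near 12; 0% = biofilm with clotrimazole alone and 100% = kill control; retested singly at about 60 µM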
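Probe or stimulus – Clotrimazole 50 µg/mL co-treatment · System – C. albicans biofilms · Schedule – 24 h biofilm formation, then 48 h compound exposure, 37 °C · Evaluation – percent inhibition of biofilm viability · Technique – 2-h Alamar Blue fluorescence, 535/590 nm excitation/emission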
* marks the source's active call; other numbers are inactive results.

Screening COC(=O)CC(NC(=O)C1CC1)c1ccc2c(c1)OCO2 (stereo not drawn) returned Calb biofilm kill 1.
For COc1ccc(OCC(=O)Nc2nc3ccc(NC(C)=O)cc3s2)cc1 the results were Calb biofilm kill 15.
Screening COc1ccc2sc(N(CCN(C)C)C(=O)/C=C/c3cccs3)nc2c1 returned Calb biofilm kill 14.
For O=C(O)CCn1ncc2ccccc2c1=O the results were Calb biofilm kill 26.
For CCS(=O)(=O)Nc1ccc(C(=O)c2ccccc2)cc1 the results were Calb biofilm kill 7.
Screening O=C(CSc1nnc2c(n1)[nH]c1ccc(S(=O)(=O)N3CCOCC3)cc12)Nc1ccccc1Cl returned Calb biofilm kill 14.
`Cc1cccc(C)c1NC(=O)c1sc(Cl)nc1C` gave Calb biofilm kill 11.
Screening CN(CC(=O)Nc1ccccc1-c1ccccc1)Cc1ccccc1Cl returned Calb biofilm kill 14.
Screening CC(C)(C)NC(=O)CN(Cc1ccc2c(c1)OCO2)C(=O)CCC(=O)Nc1nccs1 returned Calb biofilm kill 21.
For COc1ccc2[nH]c(-c3cccc(F)c3)cc(=O)c2c1 the results were Calb biofilm kill 0.
Screening COc1ccc(C(=O)c2cc([N+](=O)[O-])ccc2N2CCN(C)CC2)cc1 returned Calb biofilm kill 16.
`Cc1ccc(S(=O)(=O)N(C)C)cc1NC(=S)NCCCn1ccnc1` gave Calb biofilm kill 14.
Cc1c(-c2cc(C(=O)O)no2)cnn1C was read as Calb biofilm kill 10.
Screening O=C(N/N=C/c1ccc(O)c2ncccc12)c1cccc(Br)c1 returned Calb biofilm kill -5.
Screening NC(=O)CC(NC(=O)Cc1cccc2ccccc12)c1ccc(N2CCN(c3ccc(F)cc3)CC2)c([N+](=O)[O-])c1 (stereo not drawn) returned Calb biofilm kill 10.
COC(=O)[C@@]1(Cc2ccc(OC)cc2)[C@H]2c3cc(C(=O)N4CCCC4)n(Cc4ccc(OC)c(OC)c4)c3C[C@H]2CN1C(=O)c1ccccc1 was read as Calb biofilm kill 11.
O=C(NCc1cccs1)c1cc(-c2ccncc2)nc2ccc(Br)cc12 was read as Calb biofilm kill 28.
Screening Cc1ccccc1C(=O)NC(CC(C)C)C(=O)Nc1ccc(F)c([N+](=O)[O-])c1 (stereo not drawn) returned Calb biofilm kill 8.
`COC(=O)c1ccccc1NC(=O)CSc1nnc(-c2ccc(C)cc2)o1` gave Calb biofilm kill 10.
For S=C(c1ccc(-c2cccc(Cl)c2)o1)N1CCCCC1 the results were Calb biofilm kill 14.

Next section, starting with the last 2 of the part before.
`COC(=O)c1ccccc1NC(=O)CSc1nnc(-c2ccc(C)cc2)o1` gave Calb biofilm kill 10.
For S=C(c1ccc(-c2cccc(Cl)c2)o1)N1CCCCC1 the results were Calb biofilm kill 14.
For CCc1nn2c(NCCOC)cc(C)nc2c1-c1ccc(F)cc1 the results were Calb biofilm kill 9.
CCC/C=N/NC(=O)c1cc(Br)ccc1O was read as Calb biofilm kill 2.
Cc1ccccc1NC(=O)C(=O)NCCCN1CCOCC1 was read as Calb biofilm kill 7.
`CCn1ccnc1CN1CCc2c([nH]c3ccccc23)C1CC(C)C` (stereo not drawn) gave Calb biofilm kill 20.
For COCC1CCCN(Cc2cn(-c3ccccc3F)nc2-c2cc(C)sc2C)C1 (stereo not drawn) the results were Calb biofilm kill 10.
`Cc1ccc(S(=O)(=O)N(C)C)cc1NC(=S)NNC(=O)C(N)=O` gave Calb biofilm kill 16.
For CCNc1nc(Cl)nc(-c2cn(-c3ccccc3)c3ccccc23)n1 the results were Calb biofilm kill 19.
For Cc1c(C(=O)N2CCCC2)oc2c1-c1[nH]ncc1CC2 the results were Calb biofilm kill -2.
For O=C(CN1CCCCC1)NNc1nc(-c2ccccc2)c2cc(Cl)ccc2n1 the results were Calb biofilm kill 9.
Cc1cc(/C=N/Nc2nc(N)ncc2[N+](=O)[O-])c(C)n1-c1cccc(C(F)(F)F)c1 was read as Calb biofilm kill 16.
CC1CCN(CCNC(=S)Nc2ccc(Cl)cc2)CC1 was read as Calb biofilm kill 5.
Screening NC(=O)CNC(=O)c1cccc(Cl)c1 returned Calb biofilm kill 17.
Screening C=C(C)c1cccc(C(C)(C)NC(=O)Nc2ccc(OC)cc2)c1 returned Calb biofilm kill -1.
N#Cc1cnc2cc(-c3ccccc3)nn2c1N was read as Calb biofilm kill 1.
Screening CCOC(=O)c1nc2c(ccc3ccccc32)cc1C returned Calb biofilm kill 19.
CCc1cc2c(=O)n(Cc3ccco3)c(SCC(=O)NC3CCS(=O)(=O)C3)nc2s1 (stereo not drawn) was read as Calb biofilm kill 10.
Screening COc1ccc(CCCC(=O)Nc2ccc(F)cc2)cc1 returned Calb biofilm kill 5.
O=C(Nc1ccc2nc(C3CC3)n(Cc3ccccc3)c(=O)c2c1)C1CC1 was read as Calb biofilm kill 6.
Screening Cc1ccc(OCC(=O)Nc2cc(C(=O)O)cc(C(=O)O)c2)cc1C returned Calb biofilm kill 10.
`O=[N+]([O-])c1ccc(CCNc2cccc3ccccc23)c([N+](=O)[O-])c1` gave Calb biofilm kill 5.

Sorted by formula weight (falling): 3 of the compounds above
For CCNc1nc(Cl)nc(-c2cn(-c3ccccc3)c3ccccc23)n1 the results were Calb biofilm kill 19.
Screening C=C(C)c1cccc(C(C)(C)NC(=O)Nc2ccc(OC)cc2)c1 returned Calb biofilm kill -1.
Screening CCOC(=O)c1nc2c(ccc3ccccc32)cc1C returned Calb biofilm kill 19.

Later entries.
COC(=O)[C@@]1(Cc2ccc(OC)cc2)[C@H]2c3cc(C(=O)N4CCCC4)n(CCc4c[nH]c5ccc(O)cc45)c3C[C@H]2CN1C(=O)c1ccccc1 was read as Calb biofilm kill 16.
`COc1ccccc1NC(=O)Nc1ccc(F)c(F)c1` gave Calb biofilm kill 18.
`N#Cc1ccc(CSc2nnc(NC(=O)c3ccc4ncsc4c3)s2)cc1` gave Calb biofilm kill -2.
CC(C)=CC(=O)Nc1nnc(-c2ccccc2C)s1 was read as Calb biofilm kill 10.
Screening O=[N+]([O-])c1c(NCc2ccccc2)cc(N2CCc3ccccc3C2)c2nonc12 returned Calb biofilm kill 17.
`O=C(Cc1cccs1)N(CC1CCCO1)C1(C(=O)NC2CCCCC2)CCCCC1` (stereo not drawn) gave Calb biofilm kill 17.
`O=C(c1cccs1)C1C(c2ccc(Br)cc2)NC(=S)NC1(O)C(F)(F)F` (stereo not drawn) gave Calb biofilm kill 0.
Screening CC(C)CNC(=O)c1cccc(NC(=O)COc2cccc([N+](=O)[O-])c2)c1 returned Calb biofilm kill 8.
Screening O=C(NC1CCSC1)c1cccc(Cl)c1 (stereo not drawn) returned Calb biofilm kill -6.
`CC(=O)NC1=NN(C(C)=O)C(C)(c2ccco2)S1` (stereo not drawn) gave Calb biofilm kill 6.
`Cc1cccc(OCCOC(=O)Nc2ccccc2)c1` gave Calb biofilm kill 5.
For COc1cccc2c(SCC(=O)N/N=C/c3ccc(O)c(O)c3)cc(C)nc12 the results were Calb biofilm kill 13.
For CCOC(=O)C1(CCOC)CCN(C(C)CCc2ccc(OC)cc2)CC1 (stereo not drawn) the results were Calb biofilm kill 24.
For c1ccc(CSc2nnc3ccc(-c4ccncc4)nn23)cc1 the results were Calb biofilm kill 16.
For COc1cccc(CN(C)C(=S)Nc2cccc(C)c2)c1 the results were Calb biofilm kill 7.
Screening COC(=O)N/N=C/c1ccc([N+](=O)[O-])s1 returned Calb biofilm kill 8.
For N#Cc1c(-c2ccccc2)nc(SCC(=O)Nc2ccccc2)[nH]c1=O the results were Calb biofilm kill 18.
Screening O/N=C/C1=C(Cl)c2ccccc2CC1 returned Calb biofilm kill 14.
`O=[N+]([O-])c1ccc(N2CCCC2)nc1` gave Calb biofilm kill 18.
For COc1ccc(-c2sc(NC(C)=O)nc2-c2ccccc2)cc1 the results were Calb biofilm kill 10.
For CCOC(=O)c1[nH]c(C)c(C(=O)N2CCN(c3ccccc3OC)CC2)c1C the results were Calb biofilm kill 7.
Screening O=C(O)c1cc(NC(=S)NC(=O)C(c2ccccc2)c2ccccc2)ccc1Cl returned Calb biofilm kill 0.
Screening COc1ccc(OCc2nnc(SCC(=O)c3c(N)n(C)c(=O)n(C)c3=O)n2-c2ccccc2F)cc1 returned Calb biofilm kill 1.
For COCCNS(=O)(=O)c1ccc(C)c(C)c1C the results were Calb biofilm kill 9.
`CCN1CCN(Cc2ccc(NC(=O)c3cc(NC(=O)c4cnn(-c5ccccc5)c4N)cc(OC)c3)cc2C(F)(F)F)CC1` gave Calb biofilm kill 17.
`Cc1ccc(NC(=O)C2CCCN(C(=O)c3ccc(Cl)cc3)C2)c(C)c1` (stereo not drawn) gave Calb biofilm kill 7.
`Cc1cc(C)c(NC(=O)CSc2nc3ccc(NC(=O)CSc4nnnn4-c4ccccc4)cc3s2)c(C)c1` gave Calb biofilm kill 5.
For Cc1ccc(S(=O)(=O)N2CCCCC2)cc1NC(=O)COC(=O)Cc1cccc2ccccc12 the results were Calb biofilm kill 12.
For Cc1cc(C)cc(OCC(=O)NNC(=O)c2cc3ccccc3o2)c1 the results were Calb biofilm kill 21.
CCc1ccc(N2C(=O)C(Cl)=C(N3CCOCC3)C2=O)cc1 was read as Calb biofilm kill 9.
CC(C)(C)c1cc(C(=O)NNS(=O)(=O)c2ccccc2)n[nH]1 was read as Calb biofilm kill 18.
Fc1ccc(-n2cc(-c3ccccc3)c3c(N4CCOCC4)ncnc32)cc1 was read as Calb biofilm kill 14.
Screening CCCCNC(=O)C1CCCN1S(=O)(=O)c1cccc2nsnc12 (stereo not drawn) returned Calb biofilm kill 22.
For CCc1nc(CN2CCN(Cc3ccc(F)c(F)c3)C(CCO)C2)c(C)[nH]1 (stereo not drawn) the results were Calb biofilm kill 15.
For COc1ccc(C(=O)C2CCCN(Cc3nc4ccccc4nc3C)C2)cc1OC (stereo not drawn) the results were Calb biofilm kill -1.
Screening OC1(c2ccccc2F)CCN(Cc2nnnn2Cc2ccc(F)cc2)CC1 returned Calb biofilm kill -6.
`CCNc1nc(NCC)nc(OCCOC(=O)COc2ccc(Cl)cc2Cl)n1` gave Calb biofilm kill 8.
`COc1cc(C(=O)Oc2cc(C)[nH]c(=O)c2[N+](=O)[O-])cc(OC)c1OC` gave Calb biofilm kill 5.
Cc1ccc(CCC(=O)Nc2ncc(Cc3cccc(Cl)c3Cl)s2)o1 was read as Calb biofilm kill -9.
`Cc1cccc(-c2n[nH]c(=S)n2/N=C/c2cccs2)c1` gave Calb biofilm kill 6.

Continued; the last 7 above are carried over.
For CCc1nc(CN2CCN(Cc3ccc(F)c(F)c3)C(CCO)C2)c(C)[nH]1 (stereo not drawn) the results were Calb biofilm kill 15.
For COc1ccc(C(=O)C2CCCN(Cc3nc4ccccc4nc3C)C2)cc1OC (stereo not drawn) the results were Calb biofilm kill -1.
Screening OC1(c2ccccc2F)CCN(Cc2nnnn2Cc2ccc(F)cc2)CC1 returned Calb biofilm kill -6.
`CCNc1nc(NCC)nc(OCCOC(=O)COc2ccc(Cl)cc2Cl)n1` gave Calb biofilm kill 8.
`COc1cc(C(=O)Oc2cc(C)[nH]c(=O)c2[N+](=O)[O-])cc(OC)c1OC` gave Calb biofilm kill 5.
Cc1ccc(CCC(=O)Nc2ncc(Cc3cccc(Cl)c3Cl)s2)o1 was read as Calb biofilm kill -9.
`Cc1cccc(-c2n[nH]c(=S)n2/N=C/c2cccs2)c1` gave Calb biofilm kill 6.
Cc1nc2ccccc2c2nc(N)nn12 was read as Calb biofilm kill 14.
Screening CCOc1cc(/C=N/N=C2/NC(=O)C(CC(=O)O)S2)ccc1OS(=O)(=O)c1ccc(C)cc1 (stereo not drawn) returned Calb biofilm kill 5.
O=c1c2ccccc2nc(SCc2cccc(F)c2)n1C1CCCC1 was read as Calb biofilm kill 19.
For CC12CCC(C(=O)NCc3ccccc3Cl)(C(Br)C1=O)C2(C)C (stereo not drawn) the results were Calb biofilm kill 4.
Screening C=CCc1cccc(CNc2ccc(Br)cc2)c1O returned Calb biofilm kill 16.
For Cc1nn(Cc2ccccc2)c(C)c1NC(=O)CSc1n[nH]c(C)c1[N+](=O)[O-] the results were Calb biofilm kill 14.
Screening O=C(Nc1ccc(Cl)cc1)N1CCOC12CCCCC2 returned Calb biofilm kill 9.
Screening COc1cccc(N2CCN(Cc3nc4scc(-c5ccccc5)c4c(=O)[nH]3)CC2)c1 returned Calb biofilm kill 13.
Screening Nc1ccc2oc(-c3ccc4nc[nH]c4c3)nc2c1 returned Calb biofilm kill 5.
For Cc1ccc(CSc2nnc(NC(=O)Cn3cnc4ccccc4c3=O)s2)cc1 the results were Calb biofilm kill 2.
Cc1ccc(NC(=O)CSc2nnc(-c3cccs3)o2)cc1S(=O)(=O)N1CCCCC1 was read as Calb biofilm kill 9.
COc1ccc(F)cc1C(=O)C1CCCN(Cc2cnc(N3CCCC3)s2)C1 (stereo not drawn) was read as Calb biofilm kill 13.
`O=C(O)C(Cc1c[nH]c2ccccc12)NS(=O)(=O)c1ccccc1` (stereo not drawn) gave Calb biofilm kill 5.
`COC(=O)c1sc(C(F)(F)F)c(-c2ccccc2)c1S(=O)(=O)N(C)C` gave Calb biofilm kill 8.
Screening CC(C)Cc1nc2ccc(N)cc2[nH]1 returned Calb biofilm kill 14.
For CCN(CCn1cccn1)C(=O)CC1C(=O)NCCN1Cc1cc(OC)cc(OC)c1 (stereo not drawn) the results were Calb biofilm kill 13.
`CCOc1ccc(CN2CCN(Cc3nc(C(C)C)cs3)CC2CCO)cc1` (stereo not drawn) gave Calb biofilm kill 10.
For CCCNS(=O)(=O)c1ccc(CCC(=O)Nc2cc(Cl)ccc2Oc2ccccc2)cc1 the results were Calb biofilm kill 14.
`CCOc1cc(C)c(C(C)C)cc1S(=O)(=O)n1cnc(C)c1` gave Calb biofilm kill 11.
Screening CC(=O)Nc1ccc(C(=O)OCc2ccc(F)cc2)cc1 returned Calb biofilm kill -1.
Screening CC(=O)c1cc(-c2ccccc2)n(CCC(=O)NC2CCC(C)CC2)c1C (stereo not drawn) returned Calb biofilm kill -9.

Not all compounds are listed; count on the stated rates, not on these rows.
